# Screening data from PubChem BioAssay.
# Cruzain inh Det: cruzain (T. cruzi) inhibition with detergent | 0.43% of 200,000 active | Potency, µM, for inactives: max response, negative = inhibition, most hits filed as inhibitors | P25779 | AID 1478 | purified cruzain, Z-FR-AMC fluorescence, 0.01% Triton;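 note: plate controls were neutral wells for no effect and buffer without enzyme for full effect; nearly all actives have a fitted effect of over 40% in size; top concentration of the series not given in the record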
# Target sequence (P25779 123-467 limits assumed): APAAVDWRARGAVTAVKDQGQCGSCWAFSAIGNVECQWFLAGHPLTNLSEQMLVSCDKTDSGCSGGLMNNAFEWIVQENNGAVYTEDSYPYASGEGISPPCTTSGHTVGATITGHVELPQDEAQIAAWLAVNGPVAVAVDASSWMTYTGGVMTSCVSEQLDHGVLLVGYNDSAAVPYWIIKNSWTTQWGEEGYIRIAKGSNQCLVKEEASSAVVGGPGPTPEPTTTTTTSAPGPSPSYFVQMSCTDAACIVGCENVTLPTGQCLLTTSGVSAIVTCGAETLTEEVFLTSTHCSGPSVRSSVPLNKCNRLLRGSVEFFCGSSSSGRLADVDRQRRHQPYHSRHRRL
#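 15 min RT preincubation of 1.5 nM cruzain with compound, then 2 uM Z-FR-AMC added; kinetic AMC fluorescence, 60 s delta. Triton X-100 0.01%, pH 5.5.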
# 2A StopGo: lowers the luciferase signal of an FMDV 2A StopGo reporter; AID 1159524; human cells with a luciferase reporter of 2A StopGo recoding; control for the full effect not named in the record; Potency, µM (highest dose often 57.9 µM), for inactives: top-dose signal change, negative = less light; 1.2% of 410,000 active; active = well fitted falling curve with a large enough effect; inconclusive = small, poorly fitted or top-dose-only effect; inactive = no such curve, though single readings can be large or run the other way; tested in HEK293T cells; note: nearly all actives have a fitted effect of over 45% in size; luciferase light after 4 h
# Cruzain noTriton: blocks cruzain activity in detergent-free assay; purified cruzain, Z-FR-AMC fluorescence, no detergent; P25779; Potency, µM, inactives show max response, negative = inhibition, hits mostly inhibitors; AID 1476; 2.3% of 200,000 active;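 note: plate controls were enzyme without inhibitor for no effect and buffer without enzyme for full effect; nearly all actives have a fitted effect of over 40% in size; top concentration of the series not given in the record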
#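 Purified cruzain at 1.5 nM, pre-incubated 15 min with compound at room temperature in 100 mM sodium acetate pH 5.5, 5 mM DTT, 0.00005% Triton X-100. Reaction started with 2 uM Z-FR-AMC; AMC fluorescence increase over 60 s gives rate.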
# Active calls of the source: *; u = inconclusive; & = joins results of further samples; ! = a repeat was not active; [ ] = dose if it differs, or a comment. Unless noted, calls come from the whole dose curve; as a rule, active = well fitted curve in the direction sought with a large enough effect; inconclusive = small, poorly fitted or top-dose-only effect, or another doubt; inactive = no such curve, though single readings can be large; an effect the other way counts as inactive or inconclusive. Unless noted, % is set by controls: 0 for no effect and ±100 for the full control effect; potency is the fitted concentration of half-maximal effect. These rows are one share of the data; count on the stated rates, not on these rows.
SMILES,Cruzain inh Det,2A StopGo,Cruzain noTriton
O=c1c(-c2ccccc2)nc2cnc(N3CCOCC3)nc2n1-c1ccccc1,-1.1%,-8%,2%
C[N+]1(C)C2CCC1CC(OC(=O)C(O)c1ccccc1)C2 (stereo not drawn),1.0%,6%,-7%
CN1CCN(c2ncncc2-c2ccc(N(C)C)cc2)CC1,0.7%,-9%,-13%
Cc1nc2cnc(Oc3ccccc3)nc2n(C)c1=O,-2.2%,6%,-8%
CN(C)C(=O)Nc1ccc(Cl)c(Cl)c1,-0.5%,5%,-4%
COc1ccc(NC(=O)N2CCC3(CC2)CCN(C(=O)c2cnccn2)CC3)cc1,3.5%,18%,-3%
CN1CCN(C2=Cc3ccccc3Oc3ccc(Cl)cc32)CC1,-11%,-10%&-15%,3%
CC(C)NC(=O)N1CC[C@@]2(CCCN(C(=O)c3ccncc3)C2)C1,3.3%,11%,5%
CC(C)n1nnc2cc(C(=O)O)ccc21,0.0%,-10%,-6%
CC1(C)Oc2ccc3ccc(=O)oc3c2CC1=O,-5.9%,-15%,-9%
COc1cccc(Cn2c(=O)c(-c3ccc(F)cc3)nc3cnc(N(C)C)nc32)c1,1.8%,-1%,1%
COc1cccc(Cn2c(=O)c(-c3cccs3)nc3cncnc32)c1,0.5%,0%,-3%
O=C(c1cc(C(F)(F)F)cc(C(F)(F)F)c1)N1CCC[C@@]2(CCN(Cc3ccncc3)C2)C1,-2.8%,-6%,-14%
CC(C)[C@H](CO)Nc1nc(Nc2cccc(Cl)c2)c2ncn(C(C)C)c2n1,-4.3%,-19%,u
COc1ccccc1-c1nc(NCc2cccs2)c2ccccc2n1,0.1%,-20%,-3%
COc1cccc(Nc2ncc3nc(-c4cccs4)c(=O)n(-c4ccccc4)c3n2)c1,0.8%,-6%,6.3µM*
O=c1c(-c2ccccc2)nc2cncnc2n1Cc1ccccc1,-2.5%,-14%,-14%
COc1ccc(CNc2nc(-c3ccc4c(c3)OCO4)nc3ccccc23)c(OC)c1,-1.7%,5%,-24%
COc1ccccc1CNc1ccnc(-c2cccc(C#N)c2)n1,3.3%,-7%,3%
Cc1[nH]c2ccc(Cl)cc2c1C1=CCNCC1,-1.2%,-6%,7%
C/C(=C\C=C/[C@@H](C)C(=O)O)[C@H]1CN[C@H](C(=O)O)[C@@H]1CC(=O)O,-0.1%,7%,7%
N#Cc1ccc(CN2CC[C@@]3(CCCN(C(=O)c4cnccn4)C3)C2)cc1,2.0%,10%,2%
COc1ccccc1CNc1ccnc(-c2ccccc2CN(C)C)n1,1.5%,3%,-7%
COc1cccc(-c2ccc3ncnc(N(C)C)c3c2)c1,-3.8%,0%,-12%
Cc1ccc(NC(=O)c2cccc(N(C)C)c2)cc1NC(=O)c1ccc(O)cc1,-1.3%,-3%&-10%&3%,9%
Cc1c(C(=O)NN2CCOCC2)nn(-c2ccc(Cl)cc2Cl)c1-c1ccc(I)cc1,1.4%,-16%,-2%
COCCn1c(=O)c(C)nc2cnc(OC)nc21,-2.8%,-17%,-3%
COC(=O)N1CCC2(CC1)CCN(c1ccccn1)CC2,2.1%,1%,8%
COc1cc(NS(C)(=O)=O)ccc1Cc1c2ccccc2nc2ccccc12,-2.6%,8%,-3%
O=c1c(CCc2ccccc2)nc2cnc(N3CCNCC3)nc2n1CCc1ccccc1,1.7%,-7%,17%
CC1CC(O)[C@]2(O)[C@]13CC(=O)OC[C@@]2(C)[C@@](C)(O)C(=O)C3 (stereo partly drawn),5.5%,2%,-5%
O=C(c1ccco1)N1CCC2(CC1)CN(Cc1ccncc1)C2,-1.8%,2%,-5%
O=C(c1ccco1)N1CCC[C@@]2(CCN(c3ccncc3)C2)C1,-0.6%,-1%,-5%
C/C=C(\C)C(=O)O[C@H]1C[C@@]2(C)CCC(C(C)C)C2(O)CC[C@@]1(C)O (stereo partly drawn),7.8%,-23%,1%
Oc1ccc2c3c1O[C@H]1c4oc5ccccc5c4C[C@]4(O)[C@H](C2)N(CC2CC2)CC[C@@]314,-0.3%,1%,4%
COc1cccc(CNc2ccc3nc(-c4ccc(N)cc4)c(OC)n3n2)c1,-2.8%,19%&16%,u
COCC(=O)N1CCC2(CC1)CN(C(=O)Nc1ccccc1)C2,7.1%,-10%,1%
CS(=O)(=O)N1CCC2(CCCN(c3cccc(-c4ccccc4)c3)C2)CC1,0.5%,-2%,u
COc1ccccc1-c1nc(NC2CC2)c2ccccc2n1,-11%,-14%,-4%
CCNc1ncc2nc(-c3ccc(Cl)cc3)c(=O)n(C[C@H]3CCCO3)c2n1,10%,-15%,20%

# Another view of part of the listing above:
# Below each SMILES – Cruzain inh Det | 2A StopGo | Cruzain noTriton
- C/C(=C\C=C/[C@@H](C)C(=O)O)[C@H]1CN[C@H](C(=O)O)[C@@H]1CC(=O)O
  -0.1% | 7% | 7%
- N#Cc1ccc(CN2CC[C@@]3(CCCN(C(=O)c4cnccn4)C3)C2)cc1
  2.0% | 10% | 2%
- COc1ccccc1CNc1ccnc(-c2ccccc2CN(C)C)n1
  1.5% | 3% | -7%
- COc1cccc(-c2ccc3ncnc(N(C)C)c3c2)c1
  -3.8% | 0% | -12%
- Cc1ccc(NC(=O)c2cccc(N(C)C)c2)cc1NC(=O)c1ccc(O)cc1
  -1.3% | -3%&-10%&3% | 9%
- Cc1c(C(=O)NN2CCOCC2)nn(-c2ccc(Cl)cc2Cl)c1-c1ccc(I)cc1
  1.4% | -16% | -2%
- COCCn1c(=O)c(C)nc2cnc(OC)nc21
  -2.8% | -17% | -3%
- COC(=O)N1CCC2(CC1)CCN(c1ccccn1)CC2
  2.1% | 1% | 8%
- COc1cc(NS(C)(=O)=O)ccc1Cc1c2ccccc2nc2ccccc12
  -2.6% | 8% | -3%
- O=c1c(CCc2ccccc2)nc2cnc(N3CCNCC3)nc2n1CCc1ccccc1
  1.7% | -7% | 17%
- CC1CC(O)[C@]2(O)[C@]13CC(=O)OC[C@@]2(C)[C@@](C)(O)C(=O)C3 (stereo partly drawn)
  5.5% | 2% | -5%
- O=C(c1ccco1)N1CCC2(CC1)CN(Cc1ccncc1)C2
  -1.8% | 2% | -5%
- O=C(c1ccco1)N1CCC[C@@]2(CCN(c3ccncc3)C2)C1
  -0.6% | -1% | -5%
- C/C=C(\C)C(=O)O[C@H]1C[C@@]2(C)CCC(C(C)C)C2(O)CC[C@@]1(C)O (stereo partly drawn)
  7.8% | -23% | 1%
- Oc1ccc2c3c1O[C@H]1c4oc5ccccc5c4C[C@]4(O)[C@H](C2)N(CC2CC2)CC[C@@]314
  -0.3% | 1% | 4%
- COc1cccc(CNc2ccc3nc(-c4ccc(N)cc4)c(OC)n3n2)c1
  -2.8% | 19%&16% | u
- COCC(=O)N1CCC2(CC1)CN(C(=O)Nc1ccccc1)C2
  7.1% | -10% | 1%
- CS(=O)(=O)N1CCC2(CCCN(c3cccc(-c4ccccc4)c3)C2)CC1
  0.5% | -2% | u
- COc1ccccc1-c1nc(NC2CC2)c2ccccc2n1
  -11% | -14% | -4%

# (next part)
SMILES,Cruzain inh Det,2A StopGo,Cruzain noTriton
CN(Cc1ccco1)c1nc(-c2ccoc2)nc2ccccc12,-4.4%,-16%,-13%
N#Cc1ccc(CN2CC[C@@]3(CCCN(S(=O)(=O)c4ccccc4)C3)C2)cc1,1.7%,-19%,-8%
COc1cccc(-c2nc(N(C)Cc3ccco3)c3ccccc3n2)c1,-3.8%,15%,-11%
COc1ccc(C(=O)N2CCC3(CC2)CCN(c2cccc(-c4ccccc4)c2)CC3)cc1,0.7%,-28%,u
Cn1c(=O)c(-c2ccc(F)cc2)nc2cnc(OCc3ccccc3)nc21,4.9%,-3%,3%
c1ccc2sc(N3CCN(Cc4ccc5c(c4)OCO5)CC3)nc2c1,0.4%,17%&-3%,3%
COc1ccc(/C=C/c2cc(O)cc(O[C@H]3OC(CO)C(O)C(O)C3O)c2)cc1 (stereo partly drawn),1.0%,52%[activator],-4%
CC(=O)N1CCC2(CCCN(c3ccccc3)C2)CC1,0.0%,-4%,-4%
CN(C)C(=O)c1ccc(-c2ccc3ncnc(N4CCNCC4)c3c2)cc1,0.2%,-4%,-7%
COCCNc1ncnc2ccc(-c3ccccc3C(F)(F)F)cc12,-2.3%,u,-5%
Cc1cc2c3c(cccc3n1)C(=O)c1ccccc1-2,-1.4%,-13%,17%
COc1ccc(-n2c(=O)c(-c3cccc(C#N)c3)nc3cnc(N4CCNCC4)nc32)cc1,-2.2%,-10%,-10%
COc1ncc2nc(-c3cccs3)c(=O)n(CCC#N)c2n1,-12%,-5%,7%
N#Cc1ccccc1-c1nc(NCCN2CCOCC2)c2ccccc2n1,-0.8%,-3%,-8%
C#CCOS(=O)OC1CCCCC1Oc1ccc(C(C)(C)C)cc1 (stereo not drawn),3.3%,25%,2%
CCNc1ncc2nc(-c3cn(C)c4ccccc34)c(=O)n(CCC#N)c2n1,4.3%,-6%,-10%
COc1cc(N)c(Cl)cc1C(=O)CCC1CCN(CCNS(C)(=O)=O)CC1,-0.6%,-20%&-17%,-7%
COc1ccc2c(c1)OC[C@H]1c3cc4c(cc3O[C@@H]21)OCO4,-4.1%,18%,-7%
COc1ccc(-n2c(=O)c(-c3cccs3)nc3cnc(N(C)C)nc32)cc1,9.5%,-11%,6%
CC(N)=NCCCC[C@H](N)C(=O)O,3.3%,-19%,4%
C=CCCCCCCCCCCCC(O)CC(O)CO (stereo not drawn) (tested in a mixture with another compound),-7.7%,9%,u
O=C(Oc1ccccc1)N1CCC2(CCN(Cc3nccs3)CC2)CC1,4.1%,-11%,-3%
CCNc1ncc2nc(-c3cc(F)cc(F)c3)c(=O)n(C3CC3)c2n1,3.6%,-9%,16%
O=c1c(-c2cccc(Cl)c2)nc2cncnc2n1C1CC1,-2.8%,-6%,7%
COc1cc(-c2ccc(N=Nc3ccc4c(S(=O)(=O)O)cc(S(=O)(=O)O)c(N)c4c3O)c(OC)c2)ccc1N=Nc1ccc2c(S(=O)(=O)O)cc(S(=O)(=O)O)c(N)c2c1O,25µM*!,u,u
COc1ccc(C2COc3c(ccc(O)c3OC)C2)c(OC)c1O (stereo not drawn),8.6%,-9%,5%
O=C(O)Cc1cc(I)c(Oc2cc(I)c(O)c(I)c2)c(I)c1,-3.2%,-5%,-4%
COCCNc1ncnc2ccc(-c3ccccc3OC)cc12,-1.6%,u,14%
CC(=O)Oc1c2c(c(CC=C(C)C)c3c1C(=O)C1=CC4CC5C(C)(C)OC(C/C=C(\C)C(=O)O)(C4=O)[C@]15O3)OC(C)(CCC=C(C)C)C=C2 (stereo partly drawn),-13%,4µM*,27%
COc1ccc(Oc2ncc3nc(-c4cccs4)c(=O)n(Cc4cccs4)c3n2)cc1,3.9%,-9%,7.9µM*
Cc1noc(C)c1-c1cc(NCc2cccs2)ncn1,0.8%,1%,1%
O=C(c1cccc(F)c1)N1CCC2(CC1)CN(c1ccc(-c3ccccc3)cc1)C2,0.6%,u,-5%
CS(=O)(=O)N1CCC2(CCN(c3cccc(-c4ccccc4)c3)CC2)CC1,-7.9%,-21%,u
CC(=O)N1CCC2(CC1)CN(c1ccccn1)C2,0.6%,-1%,-15%
Cn1cccc1C(=O)N1CCC[C@@]2(CCN(C(=O)Nc3cccc(C#N)c3)C2)C1,-4.9%,-1%,0%
Fc1ccc(C(OCCN2CCN(C/C=C\c3ccccc3)CC2)c2ccc(F)cc2)cc1,-1.1%,u,u
CC1CC[C@@]2(OC1)OC1CC3C4CC[C@@H]5CC(O)CC[C@@]5(C)C4CC[C@]3(C)C1C2C (stereo partly drawn),3.5%,1%,-13%
O=C(Nc1cccc(F)c1)N1CCCC2(CCN(C(=O)c3ccco3)CC2)C1,-0.3%,0%,-6%
CN(C)c1ncc2nc(-c3ccc(Cl)cc3)c(=O)n(Cc3ccc(F)cc3)c2n1,0.8%,-10%,-7%

# A portion taken from the entries so far, for reference:
SMILES,Cruzain inh Det,2A StopGo,Cruzain noTriton
C=CCCCCCCCCCCCC(O)CC(O)CO (stereo not drawn) (tested in a mixture with another compound),-7.7%,9%,u
O=C(Oc1ccccc1)N1CCC2(CCN(Cc3nccs3)CC2)CC1,4.1%,-11%,-3%
